Assay outcomes: PubChem BioAssay, several laboratories
BJeLR lethal: BJeLR cell viability loss | AID 1554 | BJeLR (HRASV12) viability, CellTiter-Glo ATP luminescence, 48 h; reference of the scale not given here | actives 0.17% (n = 300,000) | inhibition, % (concentration not given with the values);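 active means replicate mean above 50%; inconclusive means above 50% but judged a plate artefact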;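 further: 50 nL library stock added to about 25 µL; numbers are from one replicate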
PrP 5UTR inh: suppresses PrP 5' UTR mRNA reporter expression | actives 0.35% (n = 340,000) | cell-based PrP 5' UTR mRNA reporter, plate reader | AID 488862 | inhibition, % (test concentration not listed);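 active means every replicate at 50% or more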;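 further: 0 = median of the neutral control wells; tested in H4 reporter cells; numbers are from one replicate; inactives centre near -14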
Sa ugtP lethal: growth inhibition of S. aureus ugtP deletion strain; S. aureus RN4220 ugtP deletion, OD600 growth, 16 h; some inactives read as strong as hits; growth inhibition, % (concentration not given with the values); actives 0.54% (n = 330,000);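 active means z-score under -3 and OD600 up to 0.15 on both plates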;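 further: plate controls were untreated wells for no effect and antibiotic for full effect; wells of about 80 µL received 100 nL stock; the first replicate is given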
Bead autofluor: flagged as autofluorescent in microsphere protease counterscreen; fluorescence intensity (test concentration not listed); compound autofluorescence counterscreen, microsphere flow cytometry; stronger effect = higher value; actives 3.1% (n = 360,000);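 active means at least 3 SD above the mean of all compounds, about 16000 in these data; inconclusive means too few beads counted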;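 further: 100 nL of 1 mM stock went into each well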
Sa RN4220 lethal: kills Staphylococcus aureus RN4220; S. aureus RN4220 growth, OD600, 16 h; inhibition, % (no concentration beside the values); actives 0.33% (n = 330,000);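 active means z-score of -3 or lower and OD600 up to 0.18 on both plates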;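 further: plate controls were untreated cells for no effect and reference antibiotic for full effect; stock transfer was 100 nL into about 80 µL; one replicate is shown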
Mtb hypoxia rep: Mtb hypoxia fluorescent reporter inhibition. M. tuberculosis hypoxia-regulated fluorescent reporter, fluorescence. fluorescence inhibition, % (no concentration beside the values). actives 0.1% (n = 300,000). AID 1159583;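 active means 35 to 45% if threefold the growth effect, above 45% if 1.5-fold the growth effect; inactive means the rest, general growth blockers included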;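 further: wells of about 50 µL received 100 nL stock; 0% = vehicle wells and 100% = reference inhibitor wells; whole bacteria with a GFP reporter of the hypoxia response; strong numbers were not always called active; many hits fall short of the cut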
Mtb hypoxia rep growth: further read-out of Mtb hypoxia rep, marked with its call; growth inhibition, %; measured here: M. tuberculosis growth (absorbance);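 0% = vehicle and 100% = reference antibiotic; read after six days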
* = called active by the depositor; ? = inconclusive; . = no result given.

SMILES	BJeLR lethal	PrP 5UTR inh	Sa ugtP lethal	Bead autofluor	Sa RN4220 lethal	Mtb hypoxia rep	Mtb hypoxia rep growth
Cc1[nH]c2c(C)cccc2c1CCNC(=O)C1CCCCC1C(=O)OCC(F)(F)F (configuration not stated)	0	-49	-15	7906	-7.1	-5	3
COCCNC(=O)Cn1cc(/C=C2\C(=O)NC(=O)N(c3ccccc3F)C2=O)c2ccccc21	5	-15	-6	3874	1.7	-6	6
CN(C)CCNc1oc(COc2ccc(Cl)cc2)nc1C#N	-2	-14	3	3597	0.5	.	.
CCOc1ccc(CN2CCN(CCCn3cccn3)CC2CCO)cc1 (configuration not stated)	3	-45	4	4139	3.4	-4	14
COc1ccc(CNC(=O)C2CCN(S(=O)(=O)c3cccc4nonc34)CC2)cc1	-5	-22	2	6002	4.2	-1	-4
Cc1cccc(C(=O)NNC(=O)c2ccc3ccccc3c2)c1	.	-22	-12	3529	2.8	6	3
CCOc1ccc(N=Cc2c(O)n(-c3ccc(C)c(C)c3)c(=O)[nH]c2=O)cc1	7	.	-2	.	0.8	-2	10
O=C1CC(c2cccc(Br)c2)C2=C(CCCC2=O)N1 (configuration not stated)	3	-6	1	2876	-2.7	.	.
Cc1ccccc1C(=O)NCC(=O)NNC(=S)NC(=O)c1ccccc1	19	-16	11	1991	5.7	6	4
Cc1[nH]nc2c1C(c1cn[nH]c1-c1ccc(F)cc1)C(C#N)=C(N)O2 (configuration not stated)	1	7	-5	2176	6.0	.	.
O=C(Nc1cccc(Cl)c1N1CCOCC1)c1cccnc1Cl	-8	0	1	3926	3.0	18	10
CCOC(=O)N1CCN(CC(=O)n2c(C)c(C)c3ccccc32)CC1	-9	-37	-5	8665	-1.3	2	5

Retrieved one by one from the list above (seven):
SMILES	BJeLR lethal	PrP 5UTR inh	Sa ugtP lethal	Bead autofluor	Sa RN4220 lethal	Mtb hypoxia rep	Mtb hypoxia rep growth
Cc1ccccc1C(=O)NCC(=O)NNC(=S)NC(=O)c1ccccc1	19	-16	11	1991	5.7	6	4
Cc1cccc(C(=O)NNC(=O)c2ccc3ccccc3c2)c1	.	-22	-12	3529	2.8	6	3
CCOc1ccc(CN2CCN(CCCn3cccn3)CC2CCO)cc1 (configuration not stated)	3	-45	4	4139	3.4	-4	14
O=C1CC(c2cccc(Br)c2)C2=C(CCCC2=O)N1 (configuration not stated)	3	-6	1	2876	-2.7	.	.
COc1ccc(CNC(=O)C2CCN(S(=O)(=O)c3cccc4nonc34)CC2)cc1	-5	-22	2	6002	4.2	-1	-4
Cc1[nH]c2c(C)cccc2c1CCNC(=O)C1CCCCC1C(=O)OCC(F)(F)F (configuration not stated)	0	-49	-15	7906	-7.1	-5	3
COCCNC(=O)Cn1cc(/C=C2\C(=O)NC(=O)N(c3ccccc3F)C2=O)c2ccccc21	5	-15	-6	3874	1.7	-6	6

Next part.
SMILES	BJeLR lethal	PrP 5UTR inh	Sa ugtP lethal	Bead autofluor	Sa RN4220 lethal	Mtb hypoxia rep	Mtb hypoxia rep growth
COc1ccc(/C=C/C(=O)NCC(=O)NN=Cc2cccnc2)cc1	.	.	7	.	1.2	-4	-1
COc1ccc(OC)c(-c2cc(C(=O)N3CCc4ccccc4C3)no2)c1	7	-47	-3	8608	7.8	8	7
Cc1ccc(Nc2cc(C(=O)NCCCN3CCOCC3)c3ccccc3n2)c(C)c1	5	-13	8	2106	1.6	-7	6
COc1ccc(/C(=C/Nc2cccc(Br)c2)C(C)=O)cc1OC	4	-26	0	4107	4.0	2	5
CCOC(=O)c1c(C)[nH]c(NC(=O)NNC(=O)c2ccccc2Cl)c1C	.	-6	1	4016	-0.7	-9	-4
O=C1c2ccccc2NC(c2cccs2)N1NS(=O)(=O)c1ccccc1 (configuration not stated)	-1	-10	-6	2140	7.7	4	-1
CCn1c(SCC(=O)Nc2cc(C)on2)nnc1-c1ccccc1	-3	-16	10	3283	14	-4	-1
Cc1ccc(S(=O)(=O)NCCC(=O)OCC(=O)Nc2ccccc2Cl)cc1	-3	9	3	4549	-0.2	13	5
Cc1cccc2c(C(=O)O)c3cccc(C)c3nc12	-4	-20	5	3987	7.3	-1	6
COCC(=O)N1CCCC(C(=O)c2ccc(Oc3ccccc3)cc2)C1 (configuration not stated)	3	-24	2	4499	3.2	7	7
CN(C)S(=O)(=O)c1cccc(NC(=O)c2cnccn2)c1	9	.	-1	.	2.9	14	0
CCN1C(=NCc2ccc(OC)cc2)NC(c2ccccc2)C(C(=O)OC)C1C (configuration not stated)	.	.	-1	.	1.2	-3	-2
Cc1cccc(NC(=O)CCn2cnnn2)c1	3	-5	10	2558	-0.6	5	6
COc1ccc(CCNC(=O)c2cc(-c3ccccn3)nc3ccccc23)cc1	.	-16	1	8705	3.4	30*	55*
Cc1nnc(SCc2nnc(-c3cccs3)o2)n1C	-5	-10	6	4241	8.0	7	1
Cc1ccc2[nH]c(-c3ccccc3)c(CN(C)C)c(=O)c2c1	1	-36	2	7443	4.8	12	3
Cn1c(C(O)c2ccc(Br)cc2)nc(Cl)c1Cl (configuration not stated)	-13	-22	4	.	1.0	11	17
O=C(CSc1nnc(NC(=O)c2ccccc2F)s1)NC1CC1	3	-26	4	3945	0.2	9	0
CC1(c2ccc(OC(F)F)cc2)NC(=O)N(CC(=O)N2c3ccccc3NC(=O)C2(C)C)C1=O (configuration not stated)	.	-20	1	3735	1.5	3	5
Cc1ccc(S(=O)(=O)Nc2cc(C)c(O)cc2C)cc1	-1	-36	-5	4478	7.0	5	-3
Cn1c(=O)oc2cc(S(=O)(=O)NC(Cc3ccccc3)C(=O)N3CCCCC3)ccc21 (configuration not stated)	.	4	6	6080	5.3	7	5
COc1ccc(SCC(C)CN2CCC(NC(=O)OCc3ccccc3)CCC2=O)cc1 (configuration not stated)	.	.	0	.	7.0	7	3
COc1cc2[nH]c(C(=O)N3CCN(c4ccccc4F)CC3)cc2c(OC)c1OC	0	-25	0	3297	4.9	-4	10
N=c1n(CCN2CCCCC2)c2ccccc2n1CC(=O)c1cccc([N+](=O)[O-])c1	12	-13	4	3413	2.3	-4	-8
Cc1ccc(C2=NN(C(=O)CCl)C(c3cccs3)C2)o1 (configuration not stated)	11	-16	3	8101	20	.	.
CC(CC(=O)Nc1ccc(C)c(Cl)c1)=NNC(=O)c1cccc(O)c1	.	.	10	.	3.6	-6	-14
COc1ccccc1N(C)S(=O)(=O)c1ccc(C(=O)N2CCCc3ccccc32)cc1	0	-20	2	3735	1.6	7	5
CCN(CC)c1cc(C)c2cc(NC(=O)c3ccccc3F)ccc2n1	11	-14	7	3437	9.1	7	11
Cc1cccc(C(=O)Oc2ccccc2C2C[C@]3(C)CC(=O)NC3N2C(=O)c2cccc(C)c2)c1 (some centres not stated)	-3	-10	5	5133	11	18	7
COc1cccc(CC(NC(C)=O)C(=O)NC2CCN(S(=O)(=O)c3ccc4ccccc4c3)CC2)c1 (configuration not stated)	-10	-16	5	7735	1.4	9	3
CCCC(=O)n1nc(-c2ccccc2)nc1SC	2	-18	.	?	.	.	.
Cc1cc(=O)oc2cc(OC(C)C(=O)NCC3CCC(C(=O)O)CC3)ccc12 (configuration not stated)	-10	-9	3	3967	1.2	.	.
COc1cccc(/C=C2\SC(=S)N(NS(=O)(=O)c3ccccc3)C2=O)c1OC	-2	-13	17	3959	31	8	2
CCC(C)[C@H](N)c1cn([C@@H](CCCCN)C(=O)N2CCNCC2)nn1 (some centres not stated)	-6	0	.	3878	.	.	.
Cc1c(/C(O)=C2\C(=O)C(=O)N(CCCN(C)C)C2c2cccs2)cnn1-c1ccccc1 (configuration not stated)	.	-11	-13	4734	-2.4	9	23
Cc1nc2c(-c3ccccc3)cnn2c(N)c1-c1ccccc1	5	65*	-13	4151	-15	1	2

A portion of the results above, as a working copy:
SMILES	BJeLR lethal	PrP 5UTR inh	Sa ugtP lethal	Bead autofluor	Sa RN4220 lethal	Mtb hypoxia rep	Mtb hypoxia rep growth
COc1cccc(CC(NC(C)=O)C(=O)NC2CCN(S(=O)(=O)c3ccc4ccccc4c3)CC2)c1 (configuration not stated)	-10	-16	5	7735	1.4	9	3
CCCC(=O)n1nc(-c2ccccc2)nc1SC	2	-18	.	?	.	.	.

The list continues.
SMILES	BJeLR lethal	PrP 5UTR inh	Sa ugtP lethal	Bead autofluor	Sa RN4220 lethal	Mtb hypoxia rep	Mtb hypoxia rep growth
O=C1NC2(CCc3ccccc32)C(=O)N1CCOc1ccc(Cl)cc1 (configuration not stated)	3	-14	-7	4214	-3.6	-4	12
CCCCc1cc(=O)oc2cc(C)cc(OC(C)C(=O)O)c12 (configuration not stated)	8	-30	-9	5834	4.7	0	5
O=C1c2ccccc2[C@@H]2C[C@@H](O)[C@H](Nc3cccc(C(F)(F)F)c3)CCN12	.	-20	0	3390	0.2	-13	-2
CCOC(=O)c1cnc(SC2CC(=O)N(c3ccc(C)cc3)C2=O)nc1N (configuration not stated)	4	-10	5	24081*	3.9	2	8
Cc1ccccc1C(=O)N1CCC(C(=O)Nc2cccc(F)c2)CC1	-3	-22	-2	3336	-1.6	0	10
COc1cc(C#N)ccc1OCC(=O)Nc1cccc(S(=O)(=O)N2CCCC2)c1	19	-3	9	4401	2.4	12	7
CCOC(=O)c1cc2cc(F)ccc2nc1C	-11	-29	3	3299	-9.3	15	1
COc1ccccc1N1CCN(CC(=O)Nc2ccc3c(c2)OCCO3)CC1	-2	-7	7	3312	4.4	11	4
O=C(CSc1nncs1)Nc1ccc2[nH]c(=O)[nH]c2c1	8	-13	3	5327	1.4	6	0
COc1ccc(-c2c3c(=O)n(C)c(=O)n(C)c3cn2-c2ccccc2)cc1	-10	-6	2	2852	0.2	.	.
COC(=O)c1cc2c(ccc3ccccc32)oc1=O	-12	-17	12	3818	3.0	7	5
C(#Cc1ccccc1)CN1CCOCC1	3	-23	4	4359	4.8	-1	-1
CCOC(=O)C1=C(CC)Nc2ccccc2N=C1NC(=O)c1oc2ccccc2c1C	3	-28	11	3777	0.4	-2	11
C#CCNC(=O)C1=CC(C2CC2)CC(OCc2ccc(CO)cc2)O1 (configuration not stated)	.	.	-11	.	1.4	6	7
CCN(CC(=O)Nc1ccccc1C(=O)Nc1ccccc1)Cc1nc2ccccc2c(=O)[nH]1	14	-3	5	3980	3.5	2	11
O=C(N/N=C/c1ccc(OC(=O)c2ccccc2Cl)cc1)c1ccccn1	0	-41	.	5127	.	.	.
COc1ccc(CN(C(=O)c2snc(C(N)=O)c2N)C(C(=O)NC2CCCC2)c2ccc(OC)cc2)cc1 (configuration not stated)	-4	-21	4	5392	2.5	-1	3
CCOC(=O)c1sc(NC(=O)c2ccc(Cl)s2)cc1C	5	-84	5	5809	0.0	.	.
COc1ccccc1N(CC(=O)NCCSc1ccc(Cl)cc1)S(C)(=O)=O	-6	-20	-1	4653	3.8	4	9
O=C(NC1CC1)C1CC(=O)N(c2cccc(Cl)c2)C1 (configuration not stated)	6	-7	6	5422	3.8	9	11
CCc1ccc(C(=O)NC(CCSC)C(=O)OC)cc1 (configuration not stated)	2	-32	4	4218	4.2	9	1
CCOc1ccc(CC(=O)NCCS(=O)(=O)N2CCN(c3ccccc3)CC2)cc1	7	-14	8	?	2.9	8	2
CCOCCCNC(=O)C(NC(=O)CNC(=O)c1ccccc1)c1ccc(C)cc1 (configuration not stated)	0	-21	1	7442	-0.4	11	4
Cc1ccc(C(=O)OCC(=O)NCc2ccc(F)cc2)o1	.	-3	-1	4159	-0.7	-7	5
CCCCn1c(=O)cc(N2CCOCC2)[nH]c1=O	-10	-36	-1	5307	-10	6	12
O=C(O)CC1SC(=NN=CC2CC=CCC2)NC1=O (configuration not stated)	.	.	-4	.	3.1	7	-3
CCOC(=O)C1=C(C)NC(=S)NC1c1ccc(OCC(=O)N2CCCCCC2)cc1 (configuration not stated)	2	-14	4	3755	4.2	11	5
CCOc1ccc(S(=O)(=O)Nc2ccc(C(=O)NN)cc2)cc1	-14	-22	10	?	0.1	-17	-6
CC(=O)c1cccc(NC(=O)COC(=O)c2n[nH]c3ccccc23)c1	8	-59	3	3562	-2.6	7	2
Cc1ccc(NC(=O)COC(=O)CNC(=O)C2CCCCC2)c(Br)c1	5	-4	0	4447	4.5	10	3
O=S(=O)(Cc1ncc(C(F)(F)F)cc1Cl)c1ccccc1	9	-21	0	5615	-1.1	11	13
CSc1ncccc1C(=O)Nc1ccc(C)cn1	7	-24	8	4354	3.2	-4	-4
CCOCCCNC(=O)c1ccc(CS(=O)(=O)Cc2cccc(C)c2)o1	-10	-16	4	8203	0.8	0	0
COc1ccc(/C=C\C(=O)NCc2ccc3[nH]c(C)cc3c2)cc1OC	8	-23	-5	6657	-12	-5	3
